Assay outcomes from PubChem.
Candida biofilm: clotrimazole potentiators killing Candida biofilms, primary screen, with clotrimazole, Alamar Blue; C. albicans biofilm + clotrimazole; inhibition, % at 6 µM; hit rate 0.14% among 85,000; AID 834, 2007;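 active = inhibition above 20%; inactive = inhibition below 20%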;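 note: preformed 24 hr biofilms exposed to compound for 48 hr; 0% = biofilm without compound and 100% = blank killed by clotrimazole plus chlorhexidine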
DAT uptake mod: changed hDAT dopamine uptake under cocaine IC80, either direction, primary screen, cocaine antagonist project, cell-based, LLC-PK1 hDAT, [14C]-dopamine uptake, MLSMR. Sodium-dependent dopamine transporter (Homo sapiens), Q01959. AID 449768, 2010. B-score at 10 µM. LLC-PK1 hDAT cells, [14C]-dopamine uptake with cocaine IC80; actives deviate in either direction. hit rate 1.3% among 110,000;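 active = Z score or B-score, a plate-position-corrected score, falls beyond the plate's 99.7% confidence bounds, in either direction; inactive = both scores lie inside the 99.7% bounds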;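 note: scored against the spread of the other compound wells on the same plate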
Target sequence (Q01959 whole entry, looked up): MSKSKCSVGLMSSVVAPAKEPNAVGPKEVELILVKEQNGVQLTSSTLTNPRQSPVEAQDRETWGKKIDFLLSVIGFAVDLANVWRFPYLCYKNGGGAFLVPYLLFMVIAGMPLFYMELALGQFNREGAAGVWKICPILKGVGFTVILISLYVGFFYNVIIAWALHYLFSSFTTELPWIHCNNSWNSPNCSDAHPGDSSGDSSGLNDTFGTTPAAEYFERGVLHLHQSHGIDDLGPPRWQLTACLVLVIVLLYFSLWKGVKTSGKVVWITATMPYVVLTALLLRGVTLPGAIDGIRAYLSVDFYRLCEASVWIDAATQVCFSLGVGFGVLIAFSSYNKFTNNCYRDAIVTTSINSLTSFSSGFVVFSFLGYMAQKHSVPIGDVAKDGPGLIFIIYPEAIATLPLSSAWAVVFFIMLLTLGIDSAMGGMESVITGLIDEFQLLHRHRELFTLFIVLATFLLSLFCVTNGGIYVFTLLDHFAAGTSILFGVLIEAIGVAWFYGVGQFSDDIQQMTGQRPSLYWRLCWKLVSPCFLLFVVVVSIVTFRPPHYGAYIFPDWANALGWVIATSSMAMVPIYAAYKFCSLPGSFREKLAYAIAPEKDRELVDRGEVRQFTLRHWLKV
HUVEC tox TNFa: cytotoxicity in TNFa-stimulated HUVEC, primary screen, cytotoxicity control for VCAM1 expression modulator project, imaging, Hoechst nuclei count | HUVEC TNFalpha-stimulated, Hoechst cell count | cell count reduction, % at 2 µM | AID 848, 2007 | hit rate 0.17% among 93,000;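 active = cell count reduction exceeding the screen mean by over 5 SD, scaled to untreated wells per plate, cut at about 78% in these data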;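 note: cells counted after 24 h of TNF alpha exposure following the 1 h pretreatment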
VCAM1 TNFa inh: inhibitors of TNFa-induced VCAM1 expression, primary screen, imaging, HUVEC, TNFa stimulus, immunofluorescence; HUVEC TNFa-induced VCAM-1 immunofluorescence, high-content imaging; inhibition, % at 2 µM; hit rate 0.48% among 95,000; AID 802, 2007;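 active = inhibition above the batch mean plus 3 SD, with images confirmed as a hit by eye, cut at about 37% in these data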;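 note: 0% = TNF-stimulated DMSO wells and 100% = unstimulated control wells; not every result past the cut was called active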
HUVEC tox IL1B: cytotoxicity in IL-1B stimulated HUVEC, primary screen, cytotoxicity control for IL-1B NFkB translocation project, imaging, Hoechst nuclear count, IL-1B stimulus. cell count reduction, % at 2 µM. HUVEC cell count loss. hit rate 0.41% among 94,000;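 active = cell count reduction more than 3 SD above the screen-wide mean, cut at about 70% in these data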;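 note: normalized per plate to untreated control cells as the no-loss baseline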
The depositor's hits bear a star; . = no result given. Only part of the results is shown (hit frequency here may not be typical).

A first look (12 entries):
SMILES	Candida biofilm	DAT uptake mod	HUVEC tox TNFa	VCAM1 TNFa inh	HUVEC tox IL1B
COc1ccc(Cc2nc(C(=O)NCc3ccccc3OC)cs2)cc1	.	0.449	-3.7	-8.2	-14.9
CCOC(=O)CN1C(=O)S/C(=C/c2ccc(N3CCCCC3)o2)C1=O	.	-0.186	-17.5	-0.7	16.4
COc1cc(CNC2CCCC2)cc(Cl)c1OCc1ccccc1Cl	.	0.64	.	-16.4	-4.1
COc1ccc(OCCSc2ncn[nH]2)cc1	4.8	0.48	0.3	8.0	9.8
COc1ccc(Cl)cc1C(=O)N1CCN(c2ccccn2)CC1	8.9	-0.514	-10.3	14.3	-17.1
COc1cccc(-n2c(SCC(=O)Nc3sc4c(c3C(N)=O)CCC4)nc3ccccc3c2=O)c1	.	0.00328	-12.8	23.9	-62.2
O=C(Nc1ccc(-c2nc3ccccc3o2)cc1)c1cccnc1	4.0	0.0282	-8.0	3.8	-8.3
CCCS(=O)(=O)N1CCCC(C(=O)NCCCN(Cc2ccccc2)C(C)C)C1 (stereo not given)	4.1	.	6.4	-1.9	-63.6
Cn1nnc(NC(=O)c2ccco2)n1	9.1	-2.56	-6.3	-8.9	28.7
O=C(c1ccccc1)c1ccc2nc(-c3ccc(NC(=O)c4ccccc4F)cc3)[nH]c2c1	.	-0.714	17.3	-19.2	-23.6
CCC(CC)c1nnc(NC(=O)C2COc3ccccc3O2)s1 (stereo not given)	4.2	-0.0324	-8.4	23.5	9.7
COc1ccc2cc(C(=O)Nc3ccc(F)cc3)sc(=O)c2c1OC	.	0.0119	7.9	4.4	-31.4

The list itself, previewed entries included:
SMILES	Candida biofilm	DAT uptake mod	HUVEC tox TNFa	VCAM1 TNFa inh	HUVEC tox IL1B
COc1ccc(Cc2nc(C(=O)NCc3ccccc3OC)cs2)cc1	.	0.449	-3.7	-8.2	-14.9
CCOC(=O)CN1C(=O)S/C(=C/c2ccc(N3CCCCC3)o2)C1=O	.	-0.186	-17.5	-0.7	16.4
COc1cc(CNC2CCCC2)cc(Cl)c1OCc1ccccc1Cl	.	0.64	.	-16.4	-4.1
COc1ccc(OCCSc2ncn[nH]2)cc1	4.8	0.48	0.3	8.0	9.8
COc1ccc(Cl)cc1C(=O)N1CCN(c2ccccn2)CC1	8.9	-0.514	-10.3	14.3	-17.1
COc1cccc(-n2c(SCC(=O)Nc3sc4c(c3C(N)=O)CCC4)nc3ccccc3c2=O)c1	.	0.00328	-12.8	23.9	-62.2
O=C(Nc1ccc(-c2nc3ccccc3o2)cc1)c1cccnc1	4.0	0.0282	-8.0	3.8	-8.3
CCCS(=O)(=O)N1CCCC(C(=O)NCCCN(Cc2ccccc2)C(C)C)C1 (stereo not given)	4.1	.	6.4	-1.9	-63.6
Cn1nnc(NC(=O)c2ccco2)n1	9.1	-2.56	-6.3	-8.9	28.7
O=C(c1ccccc1)c1ccc2nc(-c3ccc(NC(=O)c4ccccc4F)cc3)[nH]c2c1	.	-0.714	17.3	-19.2	-23.6
CCC(CC)c1nnc(NC(=O)C2COc3ccccc3O2)s1 (stereo not given)	4.2	-0.0324	-8.4	23.5	9.7
COc1ccc2cc(C(=O)Nc3ccc(F)cc3)sc(=O)c2c1OC	.	0.0119	7.9	4.4	-31.4
CCOC(=O)c1cnc2cc(-c3ccc(C)cc3)nn2c1-c1ccccc1	8.7	0.577	-21.3	-1.6	-33.3
COc1ccccc1NC(=O)C1=C(C)Nc2nnnn2C1c1cc(Br)ccc1OC (stereo not given)	5.5	0.873	-28.9	3.8	-38.3
CCN(C(=O)COc1cc(=O)n(C)c2ccccc12)c1cccc(Cl)c1	-4.5	0.581	-52.4	5.3	-38.5
CCSc1nnc(-c2sc3nnc(-c4ccccc4)c(-c4ccccc4)c3c2N)o1	.	1.58*	-30.8	6.8	0.7
O=C(NCCNC(=O)c1cc(OCC(F)(F)F)ccc1OCC(F)(F)F)Nc1ccc(OC(F)(F)F)cc1	.	0.159	-17.2	10.4	8.9
CCOC(=O)/C(=C\c1ccc([N+](=O)[O-])o1)NC(=O)c1ccccc1	1.9	0.0405	-21.7	10.5	-2.7
CCCCN1C(=O)/C(=c2\sc3nc(=O)c(-c4ccccc4)nn3c2=O)c2ccccc21	.	-0.0262	-12.8	0.4	-10.3
CC1(C)CC(=O)C(C(c2ccco2)C2C(=O)CC(C)(C)CC2=O)C(=O)C1	2.5	-1.85	.	.	-16.9
CC(=O)n1nc(-c2ccco2)nc1N	8.1	-0.698	-37.1	10.7	-13.0
CCOC(=O)C(C(=O)N(C)C)c1ncc(C(F)(F)F)cc1Cl (stereo not given)	.	-1.11	-4.7	4.1	-12.8
Cc1ccc(SCc2noc(C(=O)NCC3CCCO3)c2C(=O)O)cc1C (stereo not given)	.	-0.54	-9.3	3.6	-11.7
COc1ccc(N2C(=O)CCC(C(=O)Nc3ccccn3)C2c2ccc(OC)c(OC)c2)cc1 (stereo not given)	.	0.0385	-54.8	-18.5	-6.6
Cc1cc2cc(C(c3nnnn3C(C)(C)C)N(Cc3ccco3)CC3CCCO3)c(=O)[nH]c2cc1C (stereo not given)	.	-0.335	-5.1	0.6	3.3

Carrying on.
SMILES	Candida biofilm	DAT uptake mod	HUVEC tox TNFa	VCAM1 TNFa inh	HUVEC tox IL1B
Cc1ccc(NS(=O)(=O)c2cc(C(=O)NCc3ccccn3)ccc2Cl)cc1C	.	-0.463	-2.5	8.6	-22.9
COc1cccc(C(=O)NC2CC3CCCC(C2)N3CC(=O)Nc2ccccc2)c1 (stereo not given)	1.0	1.28	-18.2	-14.3	-32.3
O=C(O/N=C\c1ccc(N2CCCCC2)c([N+](=O)[O-])c1)c1cccc(Cl)c1	.	.	8.0	-1.0	48.4
COc1ccccc1NC(=O)CN1CCN(CC(=O)Nc2ccc(Cl)c(C(F)(F)F)c2)CC1	5.9	0.947	-6.2	-8.2	16.0
CC(C)CNC(=O)C(=O)N/N=C/c1cccs1	.	1.97	14.0	-12.7	-70.3
CCn1c(N)nc2ccccc21	6.9	-0.508	-19.1	3.1	10.2
CCCOc1ccc(C(=O)NNC(=S)NC(C)=O)cc1	.	0.985	7.0	12.7	-27.6
O=C(NN=c1c(=O)c2ccccc2c1=O)c1ccccc1	.	0.314	1.8	6.1	-40.3
CN(CC(=O)NCc1ccc(F)cc1)S(=O)(=O)c1cccc2nsnc12	6.0	1.39	-17.4	29.4	11.3
COC(=O)COc1ccsc1C(=O)OC	.	-0.358	22.2	-15.3	-58.9
COc1ccc(NC2(c3ccc(Cl)cc3)C(=O)c3ccccc3C2=O)cc1	.	-0.805	5.4	4.1	-50.3
CN(C)C(=O)c1cn(N(C)c2ncc(C(F)(F)F)cc2Cl)c(=O)c2ccccc12	.	0.0142	-14.0	15.2	-10.0
COc1cccc(/C=N/NC(=O)CO/N=C(\C)c2cccs2)c1OC	8.3	3.17*	0.0	6.7	-13.5
O=C(CC1SC(N2CCCCC2)=NC1=O)Nc1cccc(C(=O)O)c1 (stereo not given)	-2.4	0.541	-61.5	12.1	-14.7
CCCC(C)NC1=NCCCCC1 (stereo not given)	4.7	-0.928	-18.1	6.3	-20.7
CCC(C)NC(=O)C1CCN(S(=O)(=O)c2cccnc2)CC1 (stereo not given)	7.0	1.39	-12.0	11.2	-52.1
CCOC(=O)c1c(C)n(C)c2ccc(OC)c(NC(=O)CN3CCN(C(=O)c4ccco4)CC3)c12	9.7	-0.233	-8.6	6.5	-68.8
Cc1cc(C)n(-c2nc(-c3ccc(Cl)c(Cl)c3)cs2)n1	.	-1.37	-11.3	4.7	-11.5
Cc1cc(C)c2c(N)c(C(=O)c3ccccc3)oc2n1	6.8	-0.545	-23.2	14.3	10.5
CCNC(=S)NNC(=O)c1cccn(Cc2ccc(Cl)cc2Cl)c1=O	.	0.17	0.8	-3.4	-8.2
Cc1cccc(N(C(=O)Cc2cccs2)C(C(=O)NC2CCCC2)c2ccsc2)c1 (stereo not given)	.	0.181	.	1.4	4.1
COc1ccc(C2=NCC(CSc3nccc(=O)[nH]3)S2)cc1 (stereo not given)	1.2	0.392	-43.6	10.1	-24.3
CC(C)CC(=O)N(c1ccc(F)cc1)C1C=CS(=O)(=O)C1 (stereo not given)	9.9	-0.242	-10.0	-1.2	-12.3
CCCNC(=O)N1CCC(C(=O)c2cccc(F)c2)CC1	6.6	0.444	-10.5	11.0	-16.4
Cc1ccc(C(CC(=O)c2ccco2)SCCO)cc1 (stereo not given)	.	0.654	-16.3	-14.7	12.0

The listing continues:
SMILES	Candida biofilm	DAT uptake mod	HUVEC tox TNFa	VCAM1 TNFa inh	HUVEC tox IL1B
COc1ccc(C2C(C(=O)N3CCOCC3)=C(C)NC3=C2C(=O)CC(C)(C)C3)c(OC)c1 (stereo not given)	6.6	0.305	-23.8	-4.1	-2.1
COc1ccc(Oc2nc(SC)nc3ccsc23)cc1	.	0.79	-0.9	14.5	-14.7
CC(=O)NC1(C(F)(F)F)C(=O)N(Cc2ccccc2)C2=C1C(=O)CC(C)(C)C2 (stereo not given)	8.8	0.0528	2.4	29.0	-6.6
Cc1ccc(-c2nnc(SCC(C)C)n2C)cc1	-2.2	-0.862	1.5	8.2	0.7
COc1ccc(/C=N/NC(=O)CO/N=C(\C)c2cccs2)cc1	.	0.123	-6.1	-9.1	3.2
CSc1nc(Cl)c(C#N)c(-c2ccc(C)cc2)n1	.	-1.06	-19.2	-16.1	-33.3
Cc1sc(NC(=O)C2CCCCC2C(=O)O)c(C(N)=O)c1-c1ccc(C(C)C)cc1 (stereo not given)	.	0.237	12.8	3.1	-30.9
COc1ccc(CN2CN=C(Nc3nc4ccccc4s3)NC2)cc1	9.6	0.576	-23.3	17.7	-9.1
CN1C2C=C3C(C#N)=C(N)C(C#N)(C#N)[C@H](c4c(F)cccc4F)[C@H]3C1CC2 (stereo not given in full)	6.1	-0.215	-9.0	15.8	-13.4
COc1ccc(S(=O)(=O)N2CCC(NC(=O)Nc3ccc(C)cc3)CC2)cc1	2.0	1.47	-27.3	-3.2	-7.7
O=c1cc(N2CCCCC2)c(-c2ccccc2)nn1Cc1ccccc1Cl	.	0.488	-15.0	-9.9	-0.6
Oc1ccc(/C=N/NC(=S)NCc2ccco2)cc1	.	-0.898	-2.5	17.9	-21.1
CCOc1ccc(-c2c[n+](=O)c3c(n2[O-])CCCC3)c(OCC)c1	6.7	0.895	2.6	13.2	-6.9
CCOc1ccc(NC(=O)C(C)Oc2ccccc2C(=O)Nc2cccc(Cl)c2Cl)cc1 (stereo not given)	.	-0.136	-22.6	-8.4	-11.5
COc1ccccc1NC(=O)Cc1csc(NC(=S)Nc2ccc(C)cc2)n1	.	-1.42	-8.5	14.8	-39.5
Cc1cc(/C=C(/C#N)C(=O)Nc2ccccc2)c(C)n1-c1cccnc1	.	0.0828	-12.6	8.0	-23.4
CC(=O)Nc1ccc(S(=O)(=O)N2CCN(c3cc4c(cc3[N+](=O)[O-])n(C)c(=O)n4C)CC2)cc1	.	0.107	0.6	1.4	-30.9
COc1ccc(-n2cnnc2SCC(=O)Nc2ccc(N3CCOCC3)cc2)cc1	.	0.0771	-0.5	-31.2	-16.4
O=C(Nc1ccc(-c2cn3ccccc3n2)cc1)c1ccc(Cl)cc1	.	-0.29	-6.5	0.2	6.7
O=C(Cc1ccccc1)NC(NC(=S)Nc1cc(Cl)ccc1Cl)C(Cl)(Cl)Cl (stereo not given)	.	-0.469	6.1	15.4	-53.2
Nc1nc(-c2ccco2)nn1C(=O)c1ccc(Cl)cc1	3.9	.	10.2	10.6	-24.1
CC(C)CNCC(=O)N1c2ccccc2Sc2ccccc21	.	-0.208	-13.6	-7.6	-35.5
CCCCCCCCCn1cc(C(C)=O)c(=O)[nH]c1=O	.	.	-3.7	20.4	-16.9
N#Cc1ccc(-c2ccc(F)cc2)nc1Sc1ccc(F)cc1	.	0.863	11.8	10.8	42.4
COc1ccc(C(=O)Nc2cc(Cl)ccc2OC(=O)c2ccc(OC)cc2)cc1	.	-0.0302	16.2	0.2	-76.8
CC1CCc2cccc3c2N1c1cc(C#N)c(C#N)cc1O3 (stereo not given)	4.1	-0.292	.	.	.
